From PubChem BioAssay
miR-21 FLuc – miR-21 reporter, rising signal | AID 2288 | Potency, µM (top dose mostly 38.3 µM), inactives show top-dose reporter change, positive = more light | 340,000 tested, under 10 active | HeLa miR-21 FLuc reporter, luciferase, 48 h; active = well fitted rising curve with a large enough effect; inconclusive = small, poorly fitted or top-dose-only effect; inactive = no such curve, though single readings can be large or run the other way;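 also: % of control where 0% means no effect; miR-21 action dims this reporter so a rising signal means less miR-21 action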
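Compounds were titrated across several concentrations (up to approximately 40 uM) and incubated 48 hours with HeLa miR-21-FLuc reporter cells (miR-21 target sequence downstream of FLuc, endogenous miR-21). Readout was firefly luciferase luminescence after lytic detection reagent.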
An asterisk follows results filed as active; u = inconclusive. The list is partial (hit frequency here may not be typical).

| molecule | miR-21 FLuc |
| --- | --- |
| CC(=O)Nc1c(C)nn(-c2ccccc2)c1N1CCC(C(=O)Nc2ccccc2C(F)(F)F)CC1 | -0.3% |
| COC(=O)C(CCSC)NC(=O)c1cc2c(n(-c3ccc(Cl)cc3)c1=O)CCCC2=O (stereo not drawn) | -10.7% |
| COc1cccc(-c2nc(S(=O)(=O)c3ccccc3)c(N3CCCCC3)o2)c1 | -2.7% |
| CCC1=C(c2ccc(C)cc2)S(=O)(=O)N=C1N1CCC(C(=O)NCCc2ccc(Cl)cc2)CC1 | u |
| COc1ccc(-c2c(C)c3ccc(O)c(CN4CCN(C)CC4)c3oc2=O)cc1OC | 0.3% |
| O=C(Oc1ccccc1F)c1nc(SCc2ccc(F)cc2)ncc1Cl | 6.3% |
| O=C(CC1Sc2ccccc2NC1=O)Nc1cccc(C(F)(F)F)c1 (stereo not drawn) | 0.5% |
| COC(=O)c1ccccc1NC(=O)Cn1c(=O)n(CCCC(=O)NCCc2ccc(OC)c(OC)c2)c(=O)c2ccccc21 | -0.2% |
| CCOc1ccc(Cn2nnc3c(=O)[nH]c(C4CCN(C(=O)c5ccccc5)CC4)nc32)cc1 | 1.2% |
| Cc1ccc(-n2ncc3c(NCCCc4ccccc4)ncnc32)cc1C | -28.6% |
| COc1ccc(CCNC(=O)CN2C(=O)COc3ccc(S(=O)(=O)N4CCCCCC4)cc32)cc1OC | -3.1% |
| COc1cc(NC(=O)Nc2nnc(N3CCCCCC3)s2)cc(OC)c1 | -15.2% |
| CCCNC(=O)c1ccc2c(c1)ncn2-c1ccc(C)cc1C | -0.2% |
| COc1cccc(NC(=O)c2oc3ccc(S(=O)(=O)N4CCC5(CC4)OCCO5)cc3c2C)c1 | 26.6% |
| CC(C)c1ccc(C2=NC(c3ccncc3)=Nc3ccc(F)cc3N2)cc1 | -20.0% |
| CCOC(=O)c1cccc(NS(=O)(=O)c2cc3c(cc2C)NC(=O)CO3)c1 | -14.1% |
| O=C(Cn1ncc2c3ccccc3n(Cc3ccccc3)c2c1=O)Nc1ccccc1C(F)(F)F | -3.9% |
| CCOC(=O)c1c(C)sc(-c2c(-c3cccc(Cl)c3)[nH]c3c2c(=O)n(C)c(=O)n3C)c1O | 2.2% |
| COC(=O)c1cc(Cl)ccc1NC(=O)CSc1ncc(S(=O)(=O)c2ccc(Br)cc2)c(=O)[nH]1 | -0.5% |
| CCN(CC)CCCNC(=O)c1oc2c(c1C)-c1nn(Cc3ccc(Cl)cc3)cc1CC2 | -6.0% |
| Cc1c(CCC(=O)NCc2ccc(F)cc2)c(=O)oc2cc(O)ccc12 | -19.1% |
| Cc1nc2c(C(=O)NCc3ccccc3)cnn2c(C)c1Cc1ccc(F)cc1 | -5.5% |
| CCn1c(=NC(=O)c2ccc(S(=O)(=O)N3CCCC3)cc2)sc2cc(Br)ccc21 | -0.8% |
| CCOC(=O)CCC(=O)Nc1nnc2n1CCS2 | -1.2% |
| O=C(Cn1c(=O)n(CCc2ccccc2)c(=O)c2cccnc21)Nc1ccc(F)cc1 | -6.0% |
| CCCCSc1nnc2n(-c3cccc(C)c3)c(=O)c3c4c(sc3n12)CCCC4 | 1.2% |
| COCCNC(=O)CSc1nc2cc3c(cc2c(=O)n1CCCCCC(=O)NCCc1ccc(OC)c(OC)c1)OCO3 | -1.9% |
| COc1cccc(CNC(=O)CSC2=Nc3ccccc3C3=NC(C)C(=O)N23)c1OC (stereo not drawn) | u |
| CCCc1ccc(OCc2ccc(C(=O)Nc3ccccc3C(=O)OC)o2)cc1 | -52.0% |
| COc1ccc(NC(=O)CSc2ncc(-c3ccc(Cl)cc3)[nH]2)cc1OC | 7.0% |
| O=C(Cn1c(=O)nc(-c2ccccc2)c2cc(Cl)ccc21)NCCc1ccc(Cl)cc1 | 3.6% |
| Cc1oc(-c2ccc(Cl)cc2)nc1Cn1c(=O)cc(-c2ccccc2)c2c(C)nn(C)c21 | -6.1% |
| COc1cccc(CNCCSc2nnnn2C)c1OCc1ccc(F)cc1 | -1.9% |
| c1ccc(-c2cc(-c3ccccc3)c3c(n2)-c2ccccc2OC3)cc1 | -1.3% |
| CCOC(=O)c1ccc(CN(Cc2ccccc2)S(=O)(=O)c2ccc(C)cc2)cc1 | -0.4% |
| COc1ccccc1CNC(=O)C1CCN(S(=O)(=O)c2c(C)noc2/C=C/c2cccs2)CC1 | -6.6% |
| Cc1cccc(C)c1OCCn1c(C2CC(=O)N(Cc3ccc(F)cc3)C2)nc2ccccc21 (stereo not drawn) | 18.3% |
| COc1ccccc1N1CCN(C(=O)CCn2cnc3onc(-c4ccc(F)cc4)c3c2=O)CC1 | -2.1% |
| COc1ccc(-c2noc(-c3ccc(NC4CCCCC4)c([N+](=O)[O-])c3)n2)cc1OC | -4.5% |
| CCOCCCNC(=O)c1ccc(-n2c(-c3ccccc3)cc3c2CCC(C)C3)cc1 (stereo not drawn) | 16.4% |
| Cc1ccc(S(=O)(=O)c2cn(C)c3cc(N4CCCCCC4)c(F)cc3c2=O)cc1 | -1.4% |
| COc1ccccc1NC(=O)C1=C(C)Nc2nc3ccccc3n2C1c1ccccc1Cl (stereo not drawn) | -16.0% |
| Cc1ccc(NC(=O)Nc2ccc3nc(N4CCN(C)CC4)cc(C)c3c2)cc1C | -14.7% |
| COc1ccc(CN2COc3ccc4c(C)cc(=O)oc4c3C2)cc1 | 7.0% |
| Cc1c(Cl)cccc1NC(=O)CN1C(=O)c2ccccc2Sc2ncccc21 | 3.5% |
| CCN(CC)CCOC(=O)c1ccc(NC(=O)c2cc3cccc(OC)c3oc2=O)cc1 | -46.0% |
| CC(=O)N1c2ccc(S(=O)(=O)NCC3CCC(C(=O)Nc4cc(C)cc(C)c4)CC3)cc2CC1C (stereo not drawn) | -5.2% |
| CCOc1ccccc1NC(=O)Cn1c(=O)n(-c2ccc(C)c(C)c2)c(=O)c2oc3ccccc3c21 | -3.1% |
| CCN(CC)CCOC(=O)c1ccc(NC(=O)c2cc3cc(OC)ccc3oc2=O)cc1 | 2.6% |
| COc1ccccc1N1CCN(C(=O)CSc2n[nH]c(-c3ccccc3Cl)n2)CC1 | 8.1% |
| Cc1ccc(NC(=O)CC2Sc3ccccc3NC2=O)c(C)c1 (stereo not drawn) | 19.1% |
| CCOC(=O)c1c(S(=O)(=O)N2CCCC(C(=O)N(C)Cc3ccccc3)C2)c(C)n(C)c1C (stereo not drawn) | 18.5% |
| Cc1cccc(S(=O)(=O)c2cn(Cc3ccccc3)c3cc(N4CCCCC4C)c(F)cc3c2=O)c1 (stereo not drawn) | 9.9% |
| O=C(CN1C(=O)CC(c2ccccc2)=Nc2ccccc21)Nc1ccc(Br)cc1 | 16.5% |
| CC1=Nc2cc(C(=O)NCCc3ccc(Cl)cc3)ccc2Sc2ccc(C)cc21 | 21.4% |
| O=C1Nc2c(c(=O)[nH]c(=O)n2-c2ccc(Cl)cc2)C1(NS(=O)(=O)c1ccccc1)C(F)(F)F (stereo not drawn) | -1.0% |
| Cc1ccc(CNC(=O)CN2Cc3ccccc3C2=O)cc1 | -20.0% |
| CCC(C(=O)Nc1ccccc1OC)n1nc(C)c2sc3ccccc3c2c1=O (stereo not drawn) | -15.7% |
| COc1ccc(NC(=O)CSc2nc3ccccc3n2CC(=O)N2CCCC(C)C2)cc1 (stereo not drawn) | -1.5% |
| O=C(c1ccccc1Cl)n1nc(-c2cccnc2)nc1NCc1ccc(F)cc1 | -7.8% |

(listing goes on)
| molecule | miR-21 FLuc |
| --- | --- |
| CCOCCCNC(=O)c1c(NC(=O)c2cc(=O)c3ccccc3o2)sc2c1CCC2 | 2.2% |
| CCC(C)n1c(SCc2ccc(C(C)(C)C)cc2)nc2ccsc2c1=O (stereo not drawn) | 0.2% |
| CCCCn1c(Oc2cccc(C(=O)OC)c2)nc2c1c(=O)n(C)c(=O)n2C | -1.0% |
| COc1cc(Br)cc2cc(S(=O)(=O)c3ccccc3)c(=O)oc12 | 0.1% |
| CCc1nc2nc(C)cc(Nc3ccc(OC)cc3)n2n1 | 2.4% |
| CCCCOC(=O)c1ccc(OC(=O)c2sc3ncn(Cc4cccc(F)c4)c(=O)c3c2C)cc1 | -2.4% |
| CCOC(=O)c1cccc(NC(=O)CC2C(=O)N(c3ccc(F)cc3)C(=O)N2Cc2cccc(OC)c2)c1 (stereo not drawn) | 13.8% |
| CCOc1ccc2nc(SCC(=O)Nc3ccc(F)cc3)nc(-c3ccccc3)c2c1 | -0.3% |
| CCOc1ccccc1CNC(=O)CC(C)n1ccc(C)n1 (stereo not drawn) | 16.4% |
| COc1ccc(-c2cc(=O)oc3c4c(ccc23)OCN(Cc2cccc(OC)c2)C4)cc1 | -1.6% |
| Cc1ccc(S(=O)(=O)N2CCC(C(=O)Nc3ccc(Oc4ccccc4)cc3)CC2)cc1 | 3.5% |
| CCCN(CCC)C(=O)C1CCCN(c2ncnc3c2nc2n3CCCCC2)C1 (stereo not drawn) | 8.2% |
| COc1ccc(C)cc1NC(=O)Cn1c(=O)oc2cc(S(=O)(=O)N3CCCCCC3)ccc21 | 12.6% |
| Cc1c(Cl)cccc1NC(=O)CN1C(=O)COc2ccc(S(=O)(=O)N3CCOCC3)cc21 | -12.7% |
| CC(=O)c1ccc(NC(=O)Cn2c(-n3nc(C)cc3C)nc(C)cc2=O)cc1 | 21.1% |
| CCOc1cc(CNC(=O)Cn2ncn3c(cc4cc(F)ccc43)c2=O)cc(OCC)c1OCC | 3.0% |
| Cc1ccc(Cl)cc1NC(=O)c1cnc(N2CCCCC2)c2ccccc12 | 0.7% |
| CCOc1ccc(C2c3c(-c4ccc(C)cc4)n[nH]c3C(=O)N2c2ccc(Cl)cc2)cc1 (stereo not drawn) | -10.0% |
| CC(=O)Nc1nonc1-c1nnc(SCc2ccccc2Cl)n1C | -13.7% |
| CCn1cc2nc(SCC(=O)Nc3cccc(Cl)c3C)n(Cc3ccc(Cl)cc3)c(=O)c2n1 | -0.5% |
| CCC(C)NC(=O)Cn1c(-c2cccs2)cc2cc(Cl)ccc21 (stereo not drawn) | 1.9% |
| Cc1cc(C)cc(Nc2sc(C(=O)c3ccccc3)c(N)c2S(=O)(=O)c2ccccc2)c1 | u |
| Cc1cc2c(cc3c(=O)n(CC(=O)NCc4ccccc4Br)ncn32)s1 | -1.5% |
| COc1cc(CNC(=O)C2CCCCN2S(=O)(=O)c2ccc(F)cc2)cc(OC)c1OC (stereo not drawn) | 1.2% |
| O=C1CN(C(=O)c2ccc(S(=O)(=O)N3CCCC3)cc2)C(c2ccccc2)c2cc(F)ccc2N1 (stereo not drawn) | -1.0% |
| CCCSc1ncc(Cl)c(C(=O)NCc2ccc(OC)cc2)n1 | -0.4% |
| Cc1ccc(S(=O)(=O)Nc2ccc3c(c2)CCCN3C(=O)c2cccs2)cc1 | 4.5% |
| Cc1ccc(-n2ncc(C(=O)NCCN3CCc4ccccc4C3)c2C2CCN(C(=O)OC(C)(C)C)CC2)cc1 | u |
| COc1cc(NC(=O)c2cc(-c3ccccc3O)no2)cc(OC)c1OC | 1.1% |
| Nc1ncc(S(=O)(=O)Nc2ccc(OC(F)(F)F)cc2)cn1 | -11.4% |
| Cc1ccccc1CNC(=O)CCCn1nc(C)c2sc3ccccc3c2c1=O | -34.1% |
| COc1ccc(CNC(=O)Cn2ncc3c(=O)oc4ccc(C)cc4c32)c(OC)c1 | -7.5% |
| CCc1ccc2c(c1)NC(c1ccc(C)cc1)=NC(c1cccs1)=N2 | -30.8% |
| COc1ccc(-n2nnc(-c3nsc(NC(=O)c4cccs4)n3)c2C)cc1OC | -32.1% |
| CC1=C(C(=O)N2CCN(c3cccc(C)c3C)CC2)C2(CCCCC2)OC1=O | 0.2% |
| CCc1ccc(CN(Cc2ccco2)c2cnc(S(C)(=O)=O)nc2C(=O)Nc2cccc(C)c2)cc1 | 7.0% |
| COc1ccc(N2CCN(Cc3nc4c(c(=O)[nH]c(=O)n4C)n3Cc3ccc(Cl)cc3)CC2)cc1 | -0.3% |
| Cc1cc2c(cc3c(SCc4ccccc4Cl)nnc(C)n32)o1 | -38.6% |
| COc1ccc2c(Sc3ccccc3)c(C(=O)NCc3ccc(OC(C)C)cc3)[nH]c2c1 | -3.0% |
| CN(C)c1ccc(CNC(=O)c2cc3cc(S(=O)(=O)N4CCCCC4)ccc3n2C)cc1 | 11.9% |
| O=S(=O)(NCC(c1ccco1)S(=O)(=O)c1cccs1)c1ccc(F)c(C(F)(F)F)c1 (stereo not drawn) | 8.6% |
| CCc1cccc(NC(=O)c2oc3ccc4c(c3c2C)C(=O)CC(C)(C)O4)c1 | -27.4% |
| Cc1ccc(Cn2c(=O)c3ccccc3n3c(-c4cccc(O)c4)nnc23)cc1 | 0.2% |
| COc1ccc(OC)c(CNC(=O)c2cccc(NC(=O)N3CCSc4ncccc43)c2)c1 | 10.6% |
| Cc1ccc2c(c1)c1c(c(=O)n(-c3ccccc3)c(=O)n1CC(=O)N1CCCC1)n2C | -0.7% |
| Cc1cccc(Cn2c(SCc3ccc(C(=O)NCc4cccs4)cc3)nc3cccnc32)c1 | 23.8% |
| CCOC(=O)c1ccc(OCC2c3cc(OC)c(OC)cc3CCN2C(=O)Cc2ccc(F)cc2)cc1 (stereo not drawn) | 17.9% |
| COc1ccc(CNC(=O)CCCN2C(=O)c3cccnc3Oc3ccc(Cl)cc32)cc1 | 8.3% |
| COC(=O)c1ccccc1NC(=O)c1cc(-c2ccccc2O)no1 | 6.0% |

Fetched one by one from the list above:
| molecule | miR-21 FLuc |
| --- | --- |
| CCn1c(=NC(=O)c2ccc(S(=O)(=O)N3CCCC3)cc2)sc2cc(Br)ccc21 | -0.8% |
| O=C1CN(C(=O)c2ccc(S(=O)(=O)N3CCCC3)cc2)C(c2ccccc2)c2cc(F)ccc2N1 (stereo not drawn) | -1.0% |
| CC(=O)N1c2ccc(S(=O)(=O)NCC3CCC(C(=O)Nc4cc(C)cc(C)c4)CC3)cc2CC1C (stereo not drawn) | -5.2% |
| COc1ccccc1N1CCN(C(=O)CCn2cnc3onc(-c4ccc(F)cc4)c3c2=O)CC1 | -2.1% |
